FGF22 binding – binders of human FGF22 protein, primary screen, FGF22 synaptogenesis inhibitor project, biophysical, thermal shift, single point; Fibroblast growth factor 22 (Homo sapiens), Q9HCT0; recombinant FGF22 thermal shift, SYPRO orange fluorescence; percent of sucrose octasulfate shift, DMSO zero; calls only at 9.99 µM; 340,000 compounds, 1.5% hits; AID 651658, 2012;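 active means melting point raised past a set limit in the mean and every replicate; three in four hits are not shown here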
Target sequence (Q9HCT0 whole entry, looked up): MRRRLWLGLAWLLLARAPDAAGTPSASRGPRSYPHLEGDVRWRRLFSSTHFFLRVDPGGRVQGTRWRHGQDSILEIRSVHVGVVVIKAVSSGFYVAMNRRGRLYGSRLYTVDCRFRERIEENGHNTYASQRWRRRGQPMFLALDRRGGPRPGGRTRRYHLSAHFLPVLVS
HNF4A DNA FP – change in binding of human HNF4A to DNA, primary screen, biochemical, fluorescence polarization, FITC-DNA. AID 1224865, 2016. 360,000 compounds, 0.3% hits. activity change, % at 10 µM. Hepatocyte nuclear factor 4-alpha (Homo sapiens), P41235. 1 h; in the data active means activity change above about 30%, passing the limit was not always enough;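 further: controls were the assay level and a saturating level of protein; the project sought stronger binding though the title names inhibitors; some compounds called inactive have numbers as strong as hits; positive values seem to mean higher polarization but the record does not say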
Target sequence (P41235 whole entry, looked up): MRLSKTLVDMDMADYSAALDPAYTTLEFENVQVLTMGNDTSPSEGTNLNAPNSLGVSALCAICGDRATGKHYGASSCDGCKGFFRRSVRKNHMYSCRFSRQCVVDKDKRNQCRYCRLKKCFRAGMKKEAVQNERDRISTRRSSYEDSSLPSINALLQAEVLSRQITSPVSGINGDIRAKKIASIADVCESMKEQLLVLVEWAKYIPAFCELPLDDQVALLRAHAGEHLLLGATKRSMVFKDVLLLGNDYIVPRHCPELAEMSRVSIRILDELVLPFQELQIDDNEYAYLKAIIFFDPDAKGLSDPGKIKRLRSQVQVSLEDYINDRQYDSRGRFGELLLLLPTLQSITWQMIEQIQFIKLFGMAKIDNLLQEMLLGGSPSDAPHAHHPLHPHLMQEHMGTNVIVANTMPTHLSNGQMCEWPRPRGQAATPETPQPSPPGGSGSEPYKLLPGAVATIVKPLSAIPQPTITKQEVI
ALR inh – inhibitors of human ALR sulfhydryl oxidase, primary screen, biochemical, H2O2 detection, HRP-luminol luminescence, single point; FAD-linked sulfhydryl oxidase ALR (Homo sapiens), P55789; purified ALR, DTT oxidation; inhibition, % (test concentration not listed); 290,000 compounds, 3.8% hits; AID 485317, 2010;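 active means mean and each replicate at 75% or more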;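 further: stock transfer was 7.5 nL into about 7.5 µL; 0% = neutral wells and 100% = wells with inactivated enzyme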
E coli growth – E. coli growth inhibition, primary screen, OD600. Escherichia coli growth, 23 h; hits give low values. OD600 absorbance (test concentration not listed). 330,000 compounds, 0.21% hits;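 active means OD600 absorbance below the run mean of sample wells minus 3.6 SD, in any replicate, cut at about 0.56 in these data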;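 further: stock transfer was 300 nL into about 60 µL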
LANA-H2B inh – blockers of LANA interaction with H2A/H2B – biochemical, FP readout, HTS, primary screen; AID 2629, 2010; 320,000 compounds, 0.6% hits; cell-free LANA-H2A/H2B peptide, fluorescence polarization; inhibition, % (test concentration not listed); in the data active means inhibition mostly above about 10%, no sharp cut-off; inactive means mostly below about 6.7%;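 further: stock transfer was 7.5 nL into about 10 µL; 0% = median of vehicle wells and 100% = median of positive control wells; one replicate is shown; the record names a cut of 25% in any replicate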
UCH37 inh – inhibitors of human UCH37 deubiquitinase, primary screen, biochemical, Ub-AMC cleavage, fluorescence; 330,000 compounds, 0.33% hits; inhibition, % (test concentration not listed); purified proteasome/UCH37; AID 588478, 2011;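 active means mean of two replicates above 20%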;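 further: 0% = compound-free wells with enzyme and 100% = wells lacking proteasome; stock transfer was 100 nL into about 20 µL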
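Assay system: Proteasome-bound UCH37. Buffer or medium: pH 7.4 Tris-HCl (50 mM) with ovalbumin, ATP-MgCl2, DTT. Incubation: 30 min preincubation with enzyme, 25 min cleavage at room temperature. Measured by: fluorescence, ex 355 nm, em 460 nm. Read-out basis: percent inhibition. Control set: wells without proteasome as full block, compound-free enzyme plus substrate as uninhibited.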
B2AR ag – beta2AR agonists driving receptor internalization, primary screen, cell-based, FAP fluorogen, flow cytometry; Beta-2 adrenergic receptor (Homo sapiens), P07550; Am2.2-beta2AR cells; reference of the scale not given here; response, % (test concentration not listed); 340,000 compounds, 0.43% hits;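 active means response above a set limit, near 3 SD of response in nonfluorescent compounds, cut at about 42% in these data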;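 further: stock transfer was 100 nL into about 11 µL; a reference agonist was the positive control; negative values mostly stem from fluorescent compounds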
Target sequence (P07550 whole entry, looked up): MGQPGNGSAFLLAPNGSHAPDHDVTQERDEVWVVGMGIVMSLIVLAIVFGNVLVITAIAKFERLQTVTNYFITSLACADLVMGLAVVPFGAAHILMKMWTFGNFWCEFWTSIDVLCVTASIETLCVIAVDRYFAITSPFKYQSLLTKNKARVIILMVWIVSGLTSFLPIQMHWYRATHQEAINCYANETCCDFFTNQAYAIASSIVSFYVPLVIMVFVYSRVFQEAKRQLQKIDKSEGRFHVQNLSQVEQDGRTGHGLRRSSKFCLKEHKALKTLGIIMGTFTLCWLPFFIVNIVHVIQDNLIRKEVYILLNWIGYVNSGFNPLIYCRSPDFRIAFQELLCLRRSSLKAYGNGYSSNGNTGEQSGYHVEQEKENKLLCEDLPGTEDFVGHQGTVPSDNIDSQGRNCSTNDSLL
Numbers without * were called inactive; i = inactive; / = not tested or not shown; & = joins results of further samples. Some of the compounds tested; count on the stated rates, not on these rows.

SMILES | FGF22 binding | HNF4A DNA FP | ALR inh | E coli growth | LANA-H2B inh | UCH37 inh | B2AR ag
COc1ccc(NC(=O)COc2ccc(-c3nn(C)c(=O)c4ccccc34)cc2)cc1 | / | 0.6 | -52 | 0.71 | 9.0 | 1.3 | 5
COc1ccc(NC(=O)COC(=O)CC2Sc3ccccc3NC2=O)cc1 (centres undefined) | i | -2.0 | / | 0.67 | / | -2.8 | 8
CN1C(=O)c2ccc(C(=O)Nc3ccccc3O)cc2C1=O | i | -1.2 | 18 | 0.69 | 14 | 2.0 | 5
Cc1ccc(C)c(N2CCN(C(=O)CCc3nc(-c4ccc(Br)cc4)no3)CC2)c1 | i | -2.3 | / | 0.68 | / | -0.5 | 7
O=C(OCc1cnc(Cl)s1)c1ccc(Cl)cc1 | / | -0.6 | -10 | 0.75 | 0.0 | 3.5 | 1
CCCCN(CCCC)/C(N)=N/c1nc(C)cc(C)n1 | i | 2.4 | / | 0.68 | 5.0 | 2.4 | 2
CC[C@]12c3[nH]c4ccc(OC)cc4c3CCN1C(=O)C(CC(=O)NCCCN(C)C)C[C@@H]2C(=O)N1CCN(C(=O)c2ccco2)CC1 (some centres undefined) | / | 2.1 | / | 0.67 | / | -1.0 | -8
COc1ccc(OC)c(NC(=O)c2ccccc2N(Cc2ccccc2)S(C)(=O)=O)c1 | i | 0.5 | -8 | 0.68 | -1.7 | 0.1 | 7
Cc1cccc(Oc2nc(-c3ccccn3)nc3ccccc23)c1 | / | 3.0 | 2 | 0.69 | -3.1 | 5.4 | -22
Cc1c(C(=O)N2CCc3ccccc3C2)oc2ccc(S(=O)(=O)N3CC(C)CC(C)C3)cc12 (centres undefined) | i | -1.4 | -4 | 0.75 | -4.1 | 4.0 | 11
C/C(=N\NC(=O)c1ccc(F)cc1)c1ccccn1 | i | 0.3 | 0 | / | -6.6 | / | 12
O=C(c1ccco1)N1CCN(C(=O)c2ccccc2OCc2ccccc2)CC1 | i | 5.3 | -4 | 0.7 | -0.6 | 2.8 | -3
COc1cnc(-c2ccccn2)nc1Oc1ccc(Cl)cc1 | / | 2.8 | 2 | 0.65 | 0.1 | 2.7 | -10
Cc1ccc(N(CC(=O)N/N=C/c2cc(C)n(-c3ccccc3)c2C)S(C)(=O)=O)c(C)c1 | / | 6.1 | -15 | / | 3.7 | / | 14
COc1ccc(NS(=O)(=O)c2ccc(OCC(=O)N3CCOCC3)cc2)cc1Cl | i | 4.2 | -1 | 0.69 | 2.6 | 2.4 | 1
COc1ccccc1NC(=O)c1c(O)c2ccccc2[nH]c1=O | i | -4.9 | 0 | 0.69 | 2.2 | -138 | -2
CCCc1cc(=O)oc2cc(C)cc(OCC(=O)NC3CC3)c12 | i | -2.1 | -20 | 0.67 | -3.7 | -112 | -14
Cc1ccc(F)cc1S(=O)(=O)Nc1cccc(C(=O)N2CCCC(C(N)=O)C2)c1 (centres undefined) | i | -0.2 | -6 | 0.68 | -0.3 | 0.1 | -1
CCc1ccc(NC(=O)CCn2ccnc2C)cc1 | / | 0.2 | 1 | 0.68 | -3.2 | 4.5 | 6
N/C(=N\OC(=O)CC1CCCCC1)c1cccc([N+](=O)[O-])c1 | / | 8.6 | 10 | / | -5.2 | / | 10
Cn1c(=O)oc2cc(S(=O)(=O)NCc3ccco3)ccc21 | i | -0.6 | -12 | 0.79 | -3.4 | 3.8 | 2
O=c1c2cnn(-c3ccc(F)cc3)c2ncn1Cc1ccc(F)cc1 | / | -1.4 | -2 | 0.78 | -0.5 | 1.2 | 3
O=C(Cc1ccc([N+](=O)[O-])cc1)Nc1cc(C(F)(F)F)cc(C(F)(F)F)c1 | i | -2.8 | -3 | / | -1.1 | / | 8
O=C(C=NNc1ccccc1)c1ccccc1 | i | 1.6 | / | 0.65 | / | 7.2 | 0
CC1CCCCC1NC(=O)Cc1ccc(S(=O)(=O)N2CCOCC2)s1 (centres undefined) | i | 0.5 | -4 | 0.7 | 3.9 | 0.8 | -2
CSc1nsc(/C=C/Nc2ccc(F)cc2)c1C#N | i | 51* | -9 | 0.72 | 4.2 | 2.7 | 13
O=C(NC(=S)Nc1ccc(Oc2ccccc2)cc1)c1ccc(Cl)cc1 | / | -3.4 | -14 | 0.65 | -9.3 | 2.5 | -11
CC(C)N(C(=O)Cn1cc(SCC(=O)N2CCCC2)c2ccccc21)C(C)C | i | 4.1 | 7 | 0.68 | 0.0 | 4.4 | -5
COc1ccc(C(=O)Nc2cc3c4c(c2)C(C)C(=O)N4CCC3)cc1OC (centres undefined) | i | -1.5 | -18 | 0.68 | 3.5 | 0.5 | -1
COc1cccc2c1OCC/C2=N\NC(=O)COc1ccccc1C | / | 0.7 | -7 | / | -7.7 | / | 1
CCn1cc(CN2CCC(n3nccc3NC(=O)C3CCCC3)CC2)cn1 | i | 0.4 | -3 | 0.64 | 1.4 | 3.6 | -3
C/C(N)=C(/C#N)C(=O)CSc1nnc(-c2ccc(OC(F)F)cc2)o1 | i | -1.3&3.5 | -20 | 0.64&0.68 | -3.0 | 1.2&3.9 | 0&-6
Nn1c(SCC(=O)Nc2ccc(S(=O)(=O)N3CCCC3)cc2)nnc1C(F)(F)F | / | 0.5 | 36 | 0.68 | 10 | 1.2 | -2
CCCOc1ccc(OCC(=O)c2[nH]c(C)c(C(C)=O)c2C)cc1 | i | -2.0 | 1 | 0.72 | -5.9 | 0.2 | -1
CCc1ccccc1Nc1nc(N)nc(COC(=O)C2=COCCO2)n1 | i | 2.1 | -4 | 0.65 | -10 | 1.2 | -6
COc1ccc(Cl)cc1S(=O)(=O)Nc1cccc(C(=O)O)c1 | / | 1.8 | -10 | 0.7 | -0.3 | 5.5 | 6
COC(=O)c1ccc(NCc2c(O)ccc(O)c2Br)cc1Cl | i | -0.6 | / | / | / | / | 20
COc1ccccc1NC(=O)CCS(=O)(=O)c1cc2c(cc1Cl)NC(=O)CO2 | i | 0.1 | -7 | 0.69 | 1.4 | 2.7 | -18
Cc1cc(NC(=O)Cn2c(=O)oc3ccccc32)no1 | i | -3.1 | 0 | 0.7 | 0.1 | 3.6 | 5
COC(=O)Cn1c(=NC(=O)C2COc3ccccc3O2)sc2cc(S(N)(=O)=O)ccc21 (centres undefined) | i | -3.7 | -15 | 0.65 | 2.5 | 3.0 | -21
COc1ccc(S(=O)(=O)NCC2CCC(C(=O)NCc3ccc(F)cc3)CC2)cc1 (centres undefined) | i | 3.6 | / | 0.71 | 0.5 | 2.1 | -9
O=C(NCCc1ccc(F)cc1)C1CCCCC1 | i | -1.2 | -4 | 0.67 | -0.2 | 1.9 | 3
O=C(Nc1ccc(N2CCOCC2)cc1)c1cccc2c(Br)cccc12 | i | -2.6 | -10 | 0.7 | 3.8 | -8.3 | 7
COc1ccc(CCNC(=O)c2nnn(CC(=O)Nc3ccccc3C)c2N)cc1OC | / | -1.5 | 6 | 0.8 | -5.5 | 9.4 | -9
O=C(NCc1ccncc1)C(=O)Nc1nc(C23CC4CC(CC(C4)C2)C3)cs1 | / | 1.3 | -4 | 0.67 | -2.9 | 4.1 | 13
COc1ccccc1NC(=O)CSc1nc(=O)n(CCN(C)C)c2c1CCCC2 | / | -2.4 | -4 | 0.72 | 3.6 | -1.6 | -3
O=C(Nc1ccc(O)c(-c2nc3ccccc3s2)c1)c1cccs1 | i | -2.2 | -2 | 0.71 | 6.1 | 1.5 | 25
CC(C)(C)N(Cc1ccccc1)C(=O)c1cc2ccccc2o1 | / | 0.6 | -7 | 0.71 | 3.6 | 2.9 | 12
FC(F)(F)c1ccccc1NC(=S)N/N=C1\CC2CC=CC12 (centres undefined) | i | -2.1 | / | / | / | / | -4
CCC(=O)c1c[nH]c(C(=O)NCc2cccnc2)c1 | i | -3.7 | -1 | 0.69 | -5.8 | 6.0 | 0

6 entries already listed, arranged by molecular weight, ascending:
SMILES | FGF22 binding | HNF4A DNA FP | ALR inh | E coli growth | LANA-H2B inh | UCH37 inh | B2AR ag
CCC(=O)c1c[nH]c(C(=O)NCc2cccnc2)c1 | i | -3.7 | -1 | 0.69 | -5.8 | 6.0 | 0
O=C(OCc1cnc(Cl)s1)c1ccc(Cl)cc1 | / | -0.6 | -10 | 0.75 | 0.0 | 3.5 | 1
CSc1nsc(/C=C/Nc2ccc(F)cc2)c1C#N | i | 51* | -9 | 0.72 | 4.2 | 2.7 | 13
CCCc1cc(=O)oc2cc(C)cc(OCC(=O)NC3CC3)c12 | i | -2.1 | -20 | 0.67 | -3.7 | -112 | -14
Nn1c(SCC(=O)Nc2ccc(S(=O)(=O)N3CCCC3)cc2)nnc1C(F)(F)F | / | 0.5 | 36 | 0.68 | 10 | 1.2 | -2
Cc1ccc(N(CC(=O)N/N=C/c2cc(C)n(-c3ccccc3)c2C)S(C)(=O)=O)c(C)c1 | / | 6.1 | -15 | / | 3.7 | / | 14

More compounds.
SMILES | FGF22 binding | HNF4A DNA FP | ALR inh | E coli growth | LANA-H2B inh | UCH37 inh | B2AR ag
CCOC(=O)C1CCCCN1C(=O)CCc1c(C)nc2cc(-c3ccccc3)nn2c1C (centres undefined) | i | 3.1 | -93 | 0.71 | -4.7 | -15 | -14
CCOc1nc(C)ccc1-c1noc(-c2ccncc2)n1 | / | 0.6 | / | 0.7 | 0.3 | 0.4 | -5
CC(C)[C@H](NC(=O)C1CCN(S(=O)(=O)c2ccc(F)cc2)CC1)C(=O)N1CCCC1 | i | -2.4 | -1 | 0.64 | -6.0 | 2.7 | -2
O=c1[nH]c(SCc2ccc(Cl)cc2)nc2c1CCC2 | / | -2.4 | 0 | 0.75 | -3.9 | -0.5 | 9
O=C1OC(c2ccc(Br)cc2)=N/C1=C\c1ccco1 | i | -0.6 | 8 | 0.68 | 3.2 | 3.1 | 13
O=C(NCc1ccncc1)c1cnccn1 | / | 3.2 | -3 | 0.72 | 0.3 | 0.4 | 0
CCOc1c(Br)cc(C(=O)N2CCCN(C)CC2)cc1OC | i | 3.4 | -2 | 0.7 | 0.0 | 6.6 | 1
C=CCNC(=O)CSc1nc2cc(C(=O)OCC)ccc2n1CC | i | -0.9 | 70 | 0.67 | -6.2 | 5.5 | 6
CN1CCN(C(=O)C2CCC(=O)N(CCc3cccc(F)c3)C2)CC1 (centres undefined) | i | 1.0 | -12 | 0.72 | 0.8 | 0.2 | -4
Cn1c(CNc2nc(-c3ccccc3)cs2)nnc1SCC(=O)N1CCc2ccccc21 | / | -1.1 | -9 | 0.74 | 0.1 | 0.2 | 46*
COc1ccccc1N1CCN(C2CCCN(S(=O)(=O)c3ccccc3)C2)CC1 (centres undefined) | i | 2.8 | 38 | 0.67 | -6.6 | 2.9 | -7
N#C/C(=C/c1cn(-c2ccccc2)nc1-c1cccc(S(=O)(=O)N2CCOCC2)c1)C(=O)NCc1ccco1 | i | 3.0 | -3 | / | -13 | / | 8
O=c1c2ccccc2ncn1-c1ccccc1C(F)(F)F | i | -2.3 | -7 | 0.68 | 1.7 | 5.8 | -4
Cc1ccc2c(C)c(C(=O)N3CCN(c4ccncc4)CC3)oc2c1C | i | -3.1 | / | 0.7 | 4.5 | 4.4 | 0
Cc1ccc(CSCC(=O)N2CCN(c3ccccc3)CC2)cc1 | i | -1.4 | 36 | 0.69 | -2.5 | 5.4 | 6
CC(C)Oc1cccc(C(=O)C2CCCN(C(=O)c3ccoc3)C2)c1 (centres undefined) | i | -2.0 | / | 0.71 | -2.9 | 1.6 | -5
CCc1ccccc1NC(=O)CC(O)(C(=O)OC)C(F)(F)F (centres undefined) | / | 0.6 | -5 | 0.67 | 2.7 | 1.8 | 2
CC(=O)Nc1ccc(S(=O)(=O)N2CCN(c3ncccn3)CC2)cc1 | i | 0.5 | 10 | 0.73 | 2.1 | -0.1 | -4
